Screening results as filed in PubChem.
Rango release inh: qHTS Assay for Inhibitors of RanGTP induced Rango (Ran-regulated importin-beta cargo) - Importin beta complex dissociation | Snurportin-1 (Homo sapiens) + GTP-binding nuclear protein Ran (Homo sapiens) + Importin … | Biochemical FRET Rango-importin beta, RanGTP-induced dissociation | Potency, µM (titrated, usually from 46.1 µM), without a hit: at the top dose activity change, negative = inhibition | 0.071% of 340,000 active | AID 540253, 2011; active means falling FRET ratio curve, often poorly fitted, with flat reads before Ran was added; inconclusive means other falling curves, or compound fluorescence or quenching; inactive means flat or rising ratio curve;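 note: potency is the fitted concentration of half-maximal effect; % of control where 0% means no effect; nearly all actives have a fitted effect of over 45% in size; -100% = wells without RanGTP and RCC1; the record marks most hits as doubtful in a second field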
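Compounds sat 5 min at room temperature with 0.1 uM Rango biosensor plus 0.25 uM importin beta, then FRET pre-read. RanGTP-RCC1 (0.6 uM Ran, 2mM GTP, 0.2 uM RCC1) added for 45 min, and the CFP/YFP post-read measured blocked complex dissociation.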
Rango-impB inh: qHTS Assay for Inhibitors of Rango (Ran-regulated importin-beta cargo) - Importin beta complex formation. Rango CFP/YFP FRET sensor + importin beta, 45 min. Importin subunit beta-1 (Homo sapiens), Q14974. Potency, µM (highest dose often 92.2 µM), for inactives: top-dose inhibition of complex formation. 0.031% of 340,000 active; active = rising FRET ratio curve, often small or poorly fitted; inconclusive = mostly compound fluorescence or quenching in the first reads; inactive = flat curves in all reads;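 note: potency is the fitted concentration of half-maximal effect; 0% = DMSO wells and 100% = buffer wells lacking importin beta; nearly all actives have a fitted effect of over 15% in size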
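FRET biosensor (snurportin 1 IBB flanked by EYFP and cerulean), 50 nM, with compound 5 min, then 0.125 microM importin beta in PBS, 1 mM DTT, 0.02% Tween-20, 0.1% BSA. CFP/YFP ratio read after 45 min at room temperature; pre-read flags interference.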
miR-21 FLuc: qHTS Assay for Modulators of miRNAs and/orActivators of miR-21; Potency, µM (top dose mostly 38.3 µM), without a hit: at the highest dose reporter change, positive = more light; HeLa miR-21 FLuc reporter, luciferase, 48 h; 340,000 tested, under 10 active; active = well fitted rising curve with a large enough effect; inconclusive = small, poorly fitted or top-dose-only effect; inactive = no such curve, though single readings can be large or run the other way;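 note: % of control where 0% means no effect; miR-21 action dims this reporter so a rising signal means less miR-21 action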
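Luminescence from a firefly luciferase reporter carrying a miR-21 binding site downstream, stably expressed under a CMV promoter in HeLa cells that make miR-21 endogenously, reports miRNA modulation after 48 h compound exposure up to approximately 40uM final.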
GLA inh pH 4.5: qHTS Assay for Inhibitors of Human alpha-Galactosidase at pH 4.5. purified enzyme, 4-MU-alpha-Gal fluorescence, pH 4.5. activity change, negative = inhibition, % at 105 µM. 230,000 tested, under 10 active; inconclusive = small, poorly fitted or top-dose-only inhibition, or a rising curve; inactive = flat fitted curve, though single readings scatter; no compound was filed as active;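 note: 0% = full activity with enzyme and -100% = basal without enzyme; dose as in the result columns while the protocol names 77 µM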
* hit, by the source's call; ? = inconclusive; . = not tested or not shown.

No.	Molecule	GLA inh pH 4.5	Rango-impB inh	miR-21 FLuc	Rango release inh
1	C=CCOc1c(Br)cc(/C=N/NC(=O)Cc2ccc(C(F)(F)F)cc2[N+](=O)[O-])cc1OC	-2	0.6%	-7%	6%
2	COc1ccc(C(=O)/C=C/c2ccc(OC3CSC3)cc2)cc1	-11	10%	-9%	0%
3	COc1ccc(N2CCN(C(=O)CN(C)S(=O)(=O)c3cnc[nH]3)CC2)cc1	7	-2.0%	0%	1%
4	COCC(=O)Nc1ccccc1C(=O)NC(C)C	1	-1.7%	-8%	4%
5	COc1ccc(-c2nnc(OC)c3ccccc23)cc1	.	3.1%	-3%	-10%
6	COc1ccccc1N1C(=NC(=O)C(C)Oc2ccccc2)SC2CS(=O)(=O)CC21 (stereo not given)	.	-0.5%	2%	3%
7	S=C(NCc1cccs1)Nc1ccccc1Cl	5	2.5%	-23%	0%
8	COc1ccc(OCCC(=O)OCC(=O)Nc2cccc(S(=O)(=O)N3CCCCC3)c2)cc1	.	-3.0%	.	-6%
9	COC(=O)C1=C(N)Oc2cc(C)oc(=O)c2C1c1cccnc1 (stereo not given)	0	2.3%	0%	-6%
10	COc1ccccc1OCCNC1CCCC1	-21	-1.9%	4%	-21%
11	CCCCCC(O)CCc1n[nH]c(=S)n1-c1ccccc1 (stereo not given)	5	-1.0%	-7%	-5%
12	CN1/C(=C\C(=O)CSc2ncn[nH]2)C(C)(C)c2ccccc21	-10	-0.3%	2%	-8%
13	Cc1cccc(-c2cc3nc(C)cc(C)n3n2)c1	-1	0.4%	-63%	-5%
14	Cc1nc(=O)c(-c2ccccc2)c(C)n1-c1ccccc1O	-10	1.4%	-3%	9%
15	Cc1ccc(-n2c(=O)[nH]cc(C(=O)N3CCc4ccccc43)c2=O)cc1	6	-3.0%	-1%	17%
16	CNS(=O)(=O)c1cn(CC(=O)NCc2ccc(OC)cc2)cc1S(=O)(=O)NC	.	3.7%	4%	13%
17	COc1ccc(CCn2c(=N)c(S(=O)(=O)c3ccc(Cl)cc3)cc3c(=O)n4ccccc4nc32)cc1	.	?	2%	-16%
18	Nc1nc2n(n1)C(c1ccco1)CC(c1ccc(Cl)cc1Cl)N2 (stereo not given)	6	-1.3%	-16%	0%
19	CN(CC(=O)Nc1ccccc1C(=O)NC1CC1)Cc1ccc(Cl)cc1	.	0.8%	.	-7%
20	c1ccc(CSc2nnc(-c3cccnc3)o2)cc1	0	-0.1%	-46%	27%

Part of the list above, set out differently:
#12 CN1/C(=C\C(=O)CSc2ncn[nH]2)C(C)(C)c2ccccc21
#13 Cc1cccc(-c2cc3nc(C)cc(C)n3n2)c1
entry no. | 12 | 13
GLA inh pH 4.5 | -10 | -1
Rango-impB inh | -0.3% | 0.4%
miR-21 FLuc | 2% | -63%
Rango release inh | -8% | -5%

The list continues:
No.	Molecule	GLA inh pH 4.5	Rango-impB inh	miR-21 FLuc	Rango release inh
21	COC(=O)[C@@]12CCCN1[C@H](c1ccc(-c3cccc(Cl)c3)cc1)[C@H]1C(=O)N(C)C(=O)[C@H]12	.	-0.6%	.	-16%
22	COC(=O)c1cccc(NC(=S)NCc2ccc(Cl)cc2)c1	-4	?	-1%	-27%
23	COc1ccccc1C=NC(CO)C(O)c1ccc([N+](=O)[O-])cc1 (stereo not given)	-9	2.8%	-3%	-19%
24	COc1ccc(N(CCC(=O)O)S(=O)(=O)c2ccc(C)c(C)c2)cc1	-3	0.4%	-1%	-1%
25	CCCS(=O)(=O)N1CCN(S(=O)(=O)c2ccc(F)cc2)CC1	0	-0.3%	-2%	1%
26	COc1cc(SC)ccc1C(=O)N1CCN(Cc2ccc3c(c2)OCO3)CC1	.	-3.3%	15%	0%
27	CCCCCCc1nc2ccccc2c(=O)n1N	0	1.3%	-33%	-8%
28	CC(C)Cn1c(SCC(=O)Nc2ccc(Cl)cc2F)nc(O)cc1=O	.	?	.	1%
29	Cc1ccc(-c2nnc(-c3ccccc3)c(-c3ccccc3)n2)cc1	-19	-2.6%	-1%	-6%
30	C=C(C)c1cccc(C(C)(C)NC(=O)Nc2ccc3[nH]c(=O)[nH]c3c2)c1	6	0.0%	0%	8%
31	N#C/C(=C\c1ccc(OC(=O)c2cccs2)cc1)c1nc2ccccc2[nH]1	0	?	-60%	?
32	CC(C)(C)C1CCc2c(sc(NC(=O)c3cccs3)c2C(=O)N2CCCCC2)C1 (stereo not given)	1	-6.3%	11%	-22%
33	N=C1S/C(=C\c2cccc3ccccc23)C(=O)N1c1ccc(F)cc1	-10	-1.0%	1%	-14%
34	CSc1ccc(NC(=O)Nc2ccccc2C(N)=O)cc1	-6	-0.3%	-53%	15%
35	COc1ccc(C(=O)Nc2cc(Cl)ccc2N2CCOCC2)cc1S(=O)(=O)N1CCOCC1	.	0.2%	.	11%
36	CCCCCC(=O)Nc1cccc(C2=NOC3(C2)C[C@@H](C(N)=O)N(C(=O)C2(C)CC2)C3)c1 (stereo not given in full)	-2	3.8%	-1%	8%
37	CCn1c(SCC(=O)Nc2cc(OC)c(OC)c(OC)c2)nnc1-c1cccs1	6	-0.6%	7%	4%
38	COc1ccc2c(Cl)c(C(=O)N/N=C3\CCCC(=O)C3)sc2c1	-7	?	-35%	?
39	Cc1cc(=O)[nH]c(SCC(=O)N2CCc3ccccc3C2)n1	0	4.2%	-13%	-5%
40	Cc1cc(C(=O)OCC(=O)Nc2ccccc2C#N)c(C)o1	.	6.6%	.	0%
41	CC(C)(C)c1ccc(OCCC(=O)OCC(=O)Nc2cccnc2Cl)cc1	.	-1.4%	.	-5%
42	CCOc1ccc(S(=O)(=O)N2CCN(C(=O)CN3C(=O)NC4(CCCC4)C3=O)CC2)cc1	.	-0.2%	.	15%
43	O=C(NCc1cccs1)c1ccc2c(c1)OCCO2	7	3.2%	-34%	0%
44	C=CCNC(=O)C1CC2Cn3c(nc4ccccc43)C2N1C (stereo not given)	6	-2.4%	-3%	-4%
45	COCCNC(=O)CN(Cc1ccc2c(c1)OCO2)C(=O)CCC(=O)Nc1nccs1	4	-2.4%	-5%	0%
46	Cc1cc(=O)[nH]c(NN=C2CCCCC2C)n1 (stereo not given)	.	0.1%	.	-1%
47	O=c1c2ccccc2nnn1-c1ccc(Br)cc1	2	-1.8%	-55%	12%

Of the compounds above, 10 contain a Cl atom:
No.	Molecule	GLA inh pH 4.5	Rango-impB inh	miR-21 FLuc	Rango release inh
7	S=C(NCc1cccs1)Nc1ccccc1Cl	5	2.5%	-23%	0%
17	COc1ccc(CCn2c(=N)c(S(=O)(=O)c3ccc(Cl)cc3)cc3c(=O)n4ccccc4nc32)cc1	.	?	2%	-16%
18	Nc1nc2n(n1)C(c1ccco1)CC(c1ccc(Cl)cc1Cl)N2 (stereo not given)	6	-1.3%	-16%	0%
19	CN(CC(=O)Nc1ccccc1C(=O)NC1CC1)Cc1ccc(Cl)cc1	.	0.8%	.	-7%
21	COC(=O)[C@@]12CCCN1[C@H](c1ccc(-c3cccc(Cl)c3)cc1)[C@H]1C(=O)N(C)C(=O)[C@H]12	.	-0.6%	.	-16%
22	COC(=O)c1cccc(NC(=S)NCc2ccc(Cl)cc2)c1	-4	?	-1%	-27%
28	CC(C)Cn1c(SCC(=O)Nc2ccc(Cl)cc2F)nc(O)cc1=O	.	?	.	1%
35	COc1ccc(C(=O)Nc2cc(Cl)ccc2N2CCOCC2)cc1S(=O)(=O)N1CCOCC1	.	0.2%	.	11%
38	COc1ccc2c(Cl)c(C(=O)N/N=C3\CCCC(=O)C3)sc2c1	-7	?	-35%	?
41	CC(C)(C)c1ccc(OCCC(=O)OCC(=O)Nc2cccnc2Cl)cc1	.	-1.4%	.	-5%

Only part of the results is shown. The share of hits here may be higher or lower than overall.
